PINK1 expr mod: PINK1 expression modulation | 410,000 compounds, 0.2% hits | AID 624263 | PINK1 immunofluorescence, high-content cytometry, 24 h | Potency, µM (series often up to 76.6 µM), for inactives: top-dose activation (PINK1 increase), hits mostly activators; active = well fitted activation curve with a large enough effect; inconclusive = small, poorly fitted or top-dose-only effect; inactive = flat fitted curve, though single readings scatter; cell line not stated here;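 note: potency is the fitted concentration of half-maximal effect; % of control where 0% means no effect; nearly all actives have a fitted effect of over 65% in size; a mitochondrial uncoupler was the plate control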
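Decision-based qHTS: stable cells, 24 h exposure to five compound concentrations, CCCP as control. Fixed cells stained for PINK1 plus nuclear, mitochondrial and cell markers, cytometer read.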
TRPV1 potentiator: human TRPV1 potentiation. Q8NER1. TRPV1-expressing cells, Fluo-8 calcium influx, capsaicin EC20 potentiation; host cell line not named in the record; control for the full effect not named in the record. potentiation, % at 8.33 µM. 320,000 compounds, 0.02% hits. AID 540277; active means potentiation above 80%; inconclusive means 30% to 80%; inactive means below 30%; note: 0% is about no effect
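Cells expressing TRPV1 were dye-loaded with Fluo-8 and read kinetically: 10 s baseline, 3 min after compound (agonist portion), then 2 min after EC20 capsaicin (allosteric enhancer portion). Calcium-bound dye fluorescence at 480/520 nm.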
TRPML1 inh: inhibitors of human TRPML1 channel; Q9GZU1; TRPML1-inducible cells, Ca2+ dye fluorescence, FDSS; stronger effect = lower value; inhibition of EC80 agonist-evoked calcium signal; activity change, negative = inhibition, % (concentration not given with the values); 390,000 compounds, 0.02% hits; AID 624415; in the data active means activity change below about -50%; inconclusive means about -30% to -50%; inactive means above about -30%;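 note: stimulus is agonist 54-4 at its EC80 concentration; % is set by controls: 0 for no effect and ±100 for the full control effect; the text of the record puts the active cut at -80%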
Target sequence (Q9GZU1 whole entry, looked up): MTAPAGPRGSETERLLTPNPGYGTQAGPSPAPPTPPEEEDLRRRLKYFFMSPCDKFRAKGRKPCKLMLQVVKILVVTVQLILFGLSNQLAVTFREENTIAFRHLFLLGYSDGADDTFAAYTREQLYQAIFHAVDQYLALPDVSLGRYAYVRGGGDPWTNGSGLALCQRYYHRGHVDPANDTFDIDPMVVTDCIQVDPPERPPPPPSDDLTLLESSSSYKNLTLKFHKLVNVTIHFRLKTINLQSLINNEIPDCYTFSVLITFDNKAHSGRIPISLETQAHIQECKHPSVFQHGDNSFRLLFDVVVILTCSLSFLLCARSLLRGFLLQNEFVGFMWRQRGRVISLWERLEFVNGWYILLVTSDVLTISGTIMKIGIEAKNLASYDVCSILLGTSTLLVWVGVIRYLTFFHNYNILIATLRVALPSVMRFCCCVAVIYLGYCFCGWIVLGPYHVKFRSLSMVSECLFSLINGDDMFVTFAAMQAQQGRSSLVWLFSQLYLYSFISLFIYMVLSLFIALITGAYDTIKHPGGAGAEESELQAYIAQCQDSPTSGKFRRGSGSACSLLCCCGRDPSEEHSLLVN
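TRPML1-DL cells, Tet-induced overnight (~16 h, 37 °C) at 1,500 cells/well, were loaded with Ca8 no-wash dye plus quencher for 45-90 min at room temperature. Compounds were pinned during FDSS kinetic reading; agonist 54-4 at EC80 (4 uM final) then added.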
ClpP mod: qHTS Assay for Activators of ClpP | ATP-dependent Clp protease proteolytic subunit (Bacillus subtilis (strain 168)), P80244 | Potency, µM (doses to about 57.5 µM), for the others: at the top dose activity change, negative = active | 340,000 compounds, 1.9% hits | purified B. subtilis ClpP, FRET peptide cleavage, 20 min | AID 651965, 2013; active = well fitted falling curve with a large enough effect; inconclusive = small, poorly fitted or top-dose-only effect; inactive = no such curve, though single readings can be large or run the other way; note: potency is the fitted concentration of half-maximal effect; the source files actives as falling curves though it sought activators and does not explain the sign; nearly all actives have a fitted effect of over 65% in size; many hits overshoot -100%
Target sequence (P80244 whole entry, looked up): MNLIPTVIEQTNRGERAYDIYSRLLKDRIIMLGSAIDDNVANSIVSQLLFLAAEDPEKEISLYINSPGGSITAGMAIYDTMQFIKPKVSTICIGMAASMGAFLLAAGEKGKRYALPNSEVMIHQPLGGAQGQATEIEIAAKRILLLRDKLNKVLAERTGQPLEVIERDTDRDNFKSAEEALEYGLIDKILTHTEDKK
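FRET quenching reversal measured ClpP activation: 10 microg/mL B. subtilis ClpP at pH 8 with the FRET-FV decapeptide, read at 430 nm after 320 nm excitation. The 20-min minus 0-min signal was scaled between DMSO/no-enzyme wells and ADEP (5.8 microM final).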
Menin-MLL FL inh: displaces fluorescein MLL peptide from human menin; 290,000 tested, under 10 active; AID 1766; Fluorescence polarization, fluorescein-MLL peptide displacement from menin; FP activity change, % at 61.4 µM; inconclusive = falling polarisation curve, or a change in total fluorescence; inactive = total fluorescence flat and polarisation flat or rising; no compound was filed as active; the % refers to the polarisation; negative = inhibition;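 note: % of control where 0% means no effect; inhibitors lower the polarisation; unlabelled MLL peptide was the positive control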
Sfp PPTase inh: Sfp phosphopantetheinyl transferase inhibition; Q9F4F7; 310,000 compounds, 3.5% hits; AID 1490; Biochemical Sfp PPTase activity, qHTS; Potency, µM, for inactives: max response, negative = inhibition, hits mostly inhibitors; active = well fitted inhibition curve with a large enough effect; inconclusive = small, poorly fitted or top-dose-only effect, or another doubt; inactive = no such curve, though single readings can be large or run the other way;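 note: the enzyme is Sfp with the accession as filed and its product quenches rhodamine fluorescence; potency is the fitted concentration of half-maximal effect; 0% = enzyme reaction without inhibitor and -100% = no enzyme wells; top concentration of the series not given in the record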
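With Hepes-Na pH 7.6 buffer containing 10 mM MgCl2, Sfp (15 nM) modified BHQ-2-YbbR (12.5 uM) using rhodamine-CoA (5 uM). Two reads 30 minutes apart at 525/598 nm yielded each well's rate.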
TRPML1 agonist: human mucolipin-1 channel agonism; Q9GZU1; TRPML1-expressing cells, Ca2+ dye fluorescence, FDSS; host cell line not named in the record; reference of the full effect not given here; activation, % (test concentration not listed); 410,000 compounds, 0.12% hits; AID 624414; in the data active = activation above about 50%; inconclusive = about 30% to 50%; inactive = below about 30%; note: 0% is about no effect; the text of the record puts the active cut at 80%
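Cells: TRPML1-DL, 1X Tet inducer, ~16 h at 37 degrees C/5% CO2. Dye: ABD Ca8 no-wash + quencher, 45-90 min RT. Read: 10 s baseline, compound add, 110 s agonist phase; 54-4 EC80 (4uM final), 110 s antagonist phase.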
Active calls of the source: *; ? = inconclusive; . = not tested or not shown; & = joins results of further samples; [ ] = dose if it differs, or a comment.

mol,Menin-MLL FL inh,TRPML1 inh,PINK1 expr mod,TRPV1 potentiator,Sfp PPTase inh,ClpP mod,TRPML1 agonist
COc1ccccc1Nc1nc(N)nc(CN2CCN(c3ccccc3)CC2)n1,1.7,-9,5.4%[38.3 µM],12,-11%,-2.2%,0.4
Cc1ccc(-n2nc3c(SCCN4CCOCC4)nnc(C)c3c2C)cc1,5.4,-3,4.0%,-5,12%,-2.9%,-0.5
C#CCOCCOCCOCCNc1nc(N2CCN(C(=O)Cn3cc(CCO)nn3)CC2)nc(N2CCN(C(=O)[C@H](CCCCN)n3cc(CC(C)O)nn3)CC2)n1 (some centres undefined),.,6,-0.3%,.,.,1.4%,1.1
Cc1cccc(C(=O)N/N=C2/SCC(=O)N2Cc2ccccc2)c1,3.0,-13,0.0%,8,13%,.,-0.9
CC1(C(=O)NS(=O)(=O)c2ccc(Cl)cc2)CCN1C(=O)C1(c2ccccc2)CCCC1 (centres undefined),.,.,1.0%,.,.,-1.2%,-0.3
Cc1c(C(=O)N2CCN(c3ncccn3)CC2)oc2ccc(Cl)cc12,.,7,0.9%,-9,.,-10%,1.1
CCC(=O)Oc1c(C(=O)CC)cc2c(C)cc(=O)oc2c1C,.,-5,0.4%,-22,21%,468%,-0.6
CCOC(=O)C1CCN(C(=O)CCCN2C(=O)c3ccccc3C2=O)CC1,0.0,-2,-0.1%,28,-2%,0.0%,-0.1
CCCCOc1ccc(C2c3c(-c4ccccc4O)n[nH]c3C(=O)N2Cc2ccncc2)cc1OC (centres undefined),.,-27,4.7%,.,.,-0.1%,1.3
O=C(/C=C/c1ccccc1[N+](=O)[O-])Nc1ccccc1,1.9,6,0.2%,-21,?,0.3%,-1.6
N#CC(c1ccc(Cl)nn1)c1ccccc1Cl (centres undefined),0.5,-8,0.4%,-24,-8%,-1.6%,0.0
CC(OC(=O)c1ccccc1C(=O)N(C)c1ccccc1)C(=O)Nc1ccc(C(N)=O)cc1 (centres undefined),.,12,-1.2%,2,.,-1.4%,-0.4
CCOCCCNC(=O)c1cc2c(=O)n3ccccc3nc2s1,7.1,-9&-20,2.8%&1.4%,7,15%,3.2%&3.6%,0.5&-0.9
CCOC(=O)C1=CN(Cc2ccco2)S(=O)(=O)N(C)C1c1ccc2ccccc2c1 (centres undefined),.,-14,-0.1%,.,.,0.5%,1.6
CC(C)n1nc(C(=O)Nc2nnc(C3CC3)s2)c2ccccc2c1=O,4.1,7,1.8%,2,0%,-1.3%,3.4
COc1ccc(NC(=O)CN2CCN(CC(=O)Nc3ccc(F)cc3F)CC2)cc1,-0.2,-13,2.3%,9,12%,.,0.5
Cc1ccc(C(=O)NNC(=O)c2cc3ccccc3cc2O)cc1,3.2,-7,0.5%,7,28%,-0.8%,-1.6
CCS(=O)(=O)NCC(c1cccnc1)N1CCN(c2ccccc2)CC1 (centres undefined),1.9,5,-0.9%,1,22%,-2.3%,-0.2
Oc1oc(-c2ccccc2Br)nc1/C=N/c1ccccn1,4.2,-14,-0.4%,-29,0%,-3.0%,0.1
CC(C)(O)CC[C@@H](O)[C@](C)(O)C1CC[C@@]2(O)C3=CC(=O)[C@@H]4C[C@@H](O)[C@@H](O)C[C@]4(C)C3CC[C@]12C (some centres undefined),.,3,-0.9%,.,.,0.3%,0.8
S=c1[nH]nc(CSc2nc3ccccc3s2)o1,2.3,-6,-1.5%,-1,-20%,-0.1%,-0.4
CCCNC(=O)COc1coc(CN2CCN(c3ccccc3OC)CC2)cc1=O,.,-7,0.1%,-14,11%,1.1%,-0.8
CC(=O)c1ccccc1N(C(=O)c1ccco1)C(C(=O)NC1CCCC1)c1ccc(C)cc1 (centres undefined),4.2,-6,-1.8%,2,20%,.,0.4
Nc1nn(-c2ccccc2)nc1C(=O)OCc1ccccc1F,2.9,.,.,-11,-3%,.,.
CCN(CC)CCOC(=O)c1cccc2c1-c1ccccc1C2O (centres undefined),0.4,47,1.3%,-3,-2%,.,-0.4
NC/C=C/C(=O)O,0.3&0.6,.,-1.2%,.,23%&10%&-1%,.,.
O=C1C=C(c2ccc(-c3ccccc3)cc2)C[C@@H](c2ccc3c(c2)OCO3)C1,.,-5,0.0%,-2,.,-0.9%,-0.1
CCCC(=O)NCCCc1nc2ccccc2n1CCC,3.9,-13,1.5%,9,9%,-4.4%,0.1
CCCCCCC(=O)Cc1cc(OC)c(OC)cc1C=C(C(=O)OCC)C(=O)OCC,0.4[11.7 µM],.,.,4,18%&-9%,.,.
O=Cc1cc([N+](=O)[O-])ccc1N1CCN(Cc2ccc3c(c2)OCO3)CC1,6.6,6,?,11,9%,.,-0.4
Cc1ccc2oc(=O)c3cnn(CC(=O)N4CCCc5ccccc54)c3c2c1,0.2,36,2.5%,?,1%,0.9%,-0.3
S=C(Nc1ccc(Cl)cc1Cl)N1CCCCC1,-7.5,-22,3.0%,-6,-1%,0.7%,2.4
COc1ccc(CSc2nc(N3CCOCC3)c3c(c2C#N)CC(C)(C)OC3)cc1,-0.8,-9,-1.7%[38.3 µM],-17,-14%,?,-0.6
O=C(C(Cc1ccccc1)n1cccc1)N1CCN(c2ncccn2)CC1 (centres undefined),-0.7,-8,2.8%,25,8%,-17%,0.7
NCc1nc(-c2ccc(Cl)cc2)no1,-1.6,-17,4.3%,-16,21%,-1.3%,0.3
CCN(CC)CCCNC(=O)C1c2ccccc2C(=O)N1Cc1ccc(C)cc1 (centres undefined),4.2,-10,-3.5%[38.3 µM],-12,7%,-0.5%,0.3
CC(=O)c1c(O)cc(C(C)C)n(-c2ccccc2)c1=O,-0.3,39,1.7%,0,-2%,-1.2%,-0.8
COc1ccc(NC(=O)N2CCCC2C(=O)NC23CC4CC(CC(C4)C2)C3)cc1 (centres undefined),.,-17,1.2%,-4,-2%,.,0.7
O=S(=O)(c1ccc(Br)cc1)c1nc(-c2ccco2)oc1SCc1ccccc1Cl,.,-8,1.2%,.,.,-3.9%,0.8
CN(C)CCCN1C(=O)c2cc3ccccc3cc2C1=O,0.6,.,1.7%,1,22%,3.9%,.
N#CC1=C(N2CCOCC2)/C(=C\c2ccccc2)CC1,0.3,-18,-0.2%,17,-2%,?,2.0
CCOC(=O)CSc1nc(C)[nH]c1[N+](=O)[O-],-7.1,-3,-0.6%,3,?,0.5%,3.2
Cc1ccccc1C(=O)Oc1cc(-c2ccc3c(c2)OCO3)cc(=O)c2c(C)oc(C)c12,.,-1,-0.5%,.,.,-0.4%,-0.3
Cc1cccc(-c2cc3nc4c(c(N5CCC6(CC5)OCCO6)n3n2)CCCC4)c1,.,-6,4.3%[38.3 µM],.,.,-14%,1.5
O=C(NCC(c1ccco1)N1CCCCC1)c1ccc(NS(=O)(=O)c2ccc(F)cc2)cc1 (centres undefined),.,2,5.7%,0,6%,-1.3%,0.0
O=S(OCCN1CCOCC1)C(c1ccccc1)c1ccccc1 (centres undefined),.,13,0.6%,.,.,.,-0.4
CCOCc1nnc(NC(=O)c2cc(OC)c(OC)c(OC)c2)s1,3.6,3,2.2%,6,8%,-0.4%,-0.2
O=C(c1ccc(F)cc1)N1CCN(c2ccc(N3CCOCC3)nn2)CC1,-0.8,.,3.5%,-4,14%,4.0%,.
Cc1cc(Cl)ccc1OCC(=O)NCc1ccncc1,1.5,22,2.5%[38.3 µM],-14,9%,0.4%,0.1
Cc1ccnc(NS(=O)(=O)c2ccc(NC(=O)c3c(-c4ccccc4Cl)noc3C)cc2)n1,-0.6,4,2.2%,?,17%,-2.0%,-1.0
CC(C)c1nc(SCC(=O)Nc2ccc(N3CCOCC3)cc2)c2ccccc2n1,0.8,-7,1.3%,-2,-24%,1.6%,0.0
COc1ccc(C(O)c2nc(/C=C/c3ccc(C(F)(F)F)cc3)cs2)cc1 (centres undefined),.,.,12%,.,.,25µM*,0.2
CC(=O)Nc1nc2ccccc2n1CCOc1ccccc1,5.2,7,1.1%,-15,1%,?,1.0
O=C(NCC(c1ccco1)N1CCN(c2ccccc2F)CC1)c1ccco1 (centres undefined),.,30,-7.3%,-5,.,-2.6%,0.4
O=C(NCc1ccco1)C(c1cccs1)N(C(=O)Cc1cccs1)c1ccccc1 (centres undefined),-0.5,2,0.0%,-5,-1%,-1.6%,6.5
CC(C)c1ccc(NC(=O)NC(C)c2ccc3c(c2)OCO3)cc1 (centres undefined),-0.3,1,9.6%,-10,7%,-2.9%,1.0
CCCC(=O)Nc1ccc(C(=O)Nc2nnc(COCC)s2)cc1,-0.2,11,3.7%,-3,28%,0.6%,0.3
CSc1ccc(CCNC(=O)CCc2c(C)nc3c(c(C)nn3-c3ccccc3)c2C)cc1,.,-5,5.7%,.,.,-6.3%,0.7
Cc1cc(NC(=O)Nc2csc3c2CCCC3)ccc1Br,.,7,-0.3%,.,.,-15%,-0.4
CC1CCCCC12NC(=O)N(CC(=O)NCc1ccccc1Cl)C2=O (centres undefined),.,14,0.9%,.,.,0.0%,0.5

The list goes on.
mol,Menin-MLL FL inh,TRPML1 inh,PINK1 expr mod,TRPV1 potentiator,Sfp PPTase inh,ClpP mod,TRPML1 agonist
C#CCOCCOCCOCCNc1nc(N2CCN(C(=O)[C@H](Cc3ccc(O)cc3)n3cc([C@@H](N)CC(C)C)nn3)CC2)nc(N2CCN(C(=O)[C@H](Cc3ccc(O)cc3)n3cc([C@@H](N)CC(C)C)nn3)CC2)n1,-2.2,.,.,-15,-17%,.,.
Cn1nc(N)c2c(-c3ccccc3)c(C#N)c(N)nc21,-0.4,2,-3.7%,4,8%,-2.5%,-0.4
Cc1nc2sccn2c(=O)c1S(=O)(=O)NCc1ccccc1Cl,2.8,-3,2.9%,-8,23%,3.4%,-0.9
Fc1ccc(Nc2nc(SCc3ccccc3F)nc3ccccc23)cc1,.,17,?,.,.,?,2.5
CCCCNC(=O)CN(c1cccc(Br)c1)S(C)(=O)=O,1.1,8,-4.7%,2,7%,1.6%,0.9
